# CDC25B-CDK2 inh: human CDC25B-CDK2/CyclinA binding inhibition; P30305+P24941; HTRF CDC25B-CDK2/CyclinA binding, anti-His/anti-Flag; active compounds read high; z-score (test concentration not listed); 94,000 compounds, 0.72% hits; AID 1259370;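 further: score is relative to mean and SD of negative controls; strong numbers were not always called active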
# HIV TAR-Tat: HIV-1 TAR-Tat binding disruption; HIV-1 TAR RNA, Tat peptide displacement FRET; active compounds read high; z-score (no concentration beside the values); 100,000 compounds, 0.6% hits;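 further: score is relative to mean and SD of negative controls; some compounds called inactive have numbers as strong as hits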
# * marks the source's active call; other numbers are inactive results; x = no result given.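 How the source made its calls: active means z-score from 3 up in half or more of its runs; inactive means the rest.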
nr	SMILES	CDC25B-CDK2 inh	HIV TAR-Tat
1	Cc1ccc(C)c(OCc2nc3ccccc3[nH]2)c1	-2.22	0.69
2	COc1ccc(S(=O)Cc2ccc(C(=O)NC3CC3)o2)cc1 (stereo not drawn)	x	0.15
3	COc1ccc(-n2c(Cc3cccn3C)nnc2SCC(=O)Nc2ccc(F)cc2F)cc1	0.37	x
4	O=C(COc1ccc(Cl)cc1)Oc1cccc(-n2cnnn2)c1	-0.92	0.58
5	Cn1c(=O)oc2cc(S(=O)(=O)N3CCCC(C(=O)Nc4ccccc4Cl)C3)ccc21 (stereo not drawn)	-1.94	-1.03
6	CCOC(=O)c1cn2nc(Oc3ccc(N4CCN(C(C)=O)CC4)cc3)ccc2n1	-1.1	x
7	CC1CCCCN1C(=O)CN1C=NS(=O)(=O)c2ccccc21 (stereo not drawn)	x	-0.77
8	CCOC(=O)Cn1c(=O)oc2cc(S(=O)(=O)NCc3ccc4c(c3)OCO4)ccc21	-1.1	1.24
9	CCCCCN1C(C(=O)c2ccccc2)=C(OC(=O)CC)c2ccccc2S1(=O)=O	1.63	1.17
10	COc1cnc(CSc2nnc(C)s2)cc1OCC(=O)NC1CCCC1	x	0.4
11	Cc1ccc(NC2=C(Cl)C(=O)OC2OC(C)C)c(C)c1 (stereo not drawn)	-0.07	x
12	COc1ccc(CN2C(=O)c3cccnc3C2=O)cc1S(=O)(=O)NCc1cccnc1	x	1.66
13	O=C1c2cccnc2C(=O)N1Cc1ccc(F)cc1S(=O)(=O)N1CCCc2ccccc21	x	0.19
14	CC(C)[N+](C)(CCOC(=O)C1c2ccccc2Oc2ccccc21)C(C)C	0.65	-1.12
15	CN(CC(=O)NC1CCCC1)S(=O)(=O)c1ccc2c(c1)CCC(=O)N2	-0.02	x
16	CC(Oc1ccccc1)C(=O)Nc1cccc(OCc2cc(=O)n3nc(C(C)C)sc3n2)c1 (stereo not drawn)	-1.51	-1.32
17	COC(=O)CC1Oc2ccccc2-n2cc(-c3ccccc3)nc21 (stereo not drawn)	-0.01	-0.12
18	CC(C)N1CCc2nc3sc(C(=O)Nc4ccc(Cl)cc4)c(N)c3cc2C1	-0.6	0.55
19	O=c1c(SCc2ccc(Cl)cc2)nccn1-c1ccccc1	x	-0.07
20	Nc1ncc(Br)cc1S(=O)(=O)N1CCN(Cc2ccccc2)CC1	-2.43	0.94
21	Cc1cc(S(=O)(=O)Nc2cc(N3CCCS3(=O)=O)ccc2C)ccc1F	x	0.05
22	CCn1c(=O)sc2cc(S(=O)(=O)N3CCC(C(=O)Nc4nc(C)cs4)CC3)ccc21	x	1.24
23	CCc1ccccc1Nc1nc2ccccc2n2cnnc12	-1.74	1.19
24	O=C(CN1C2=NCCCN2c2ccccc21)c1ccc(O)cc1	-1.29	1.59
25	CCCCn1cc(S(=O)(=O)c2ccc(Cl)cc2)c(=O)c2cc(F)c(N3CCOCC3)cc21	x	0.5
26	COc1cccc2cc(C(=O)CC3(O)C(=O)Nc4ccc(Br)cc43)oc12 (stereo not drawn)	x	2.19
27	Oc1cccc2ccc(Nc3ccccn3)nc12	-0.36	1.94
28	O=C(Cc1nn[nH]n1)Nc1ccc(F)c(Cl)c1	0.14	x
29	Cc1ccsc1C1C(C#N)=C(N)OC2=C1C(=O)CC(C)(C)C2 (stereo not drawn)	0.07	x
30	O=C(c1ccccc1)N1c2ncnn2C2(CCCCC2)[C@@H]2CCCC[C@@H]21	-1.4	2.79
31	Cc1cc(CNC(=O)Nc2ccc(F)cc2F)c(C)n1-c1ccc(Cl)cc1	x	0.15
32	CC(C)NC(=O)C1CCC(Cn2c(=O)c3sccc3n(CC(=O)NC3CCCC3)c2=O)CC1 (stereo not drawn)	x	0.64
33	COc1ccc(-c2cc(-c3ccccc3O)[nH]n2)cc1OC	-2.64	2.32
34	COc1ccc(-c2csc(C)n2)cc1S(=O)(=O)Nc1c(C)cc(C)cc1C	x	1.23
35	COc1ccc(/C(C)=N/Nc2c([N+](=O)[O-])cc(C(F)(F)F)cc2[N+](=O)[O-])cc1CC#N	-1.44	x
36	Cc1cc(C)n2nc(NCc3cccs3)nc2n1	-1.21	1.81
37	O=C(NC1CCCCC1)C1=Cc2cc(Br)ccc2OC=C1	-1.52	0.06
38	Cn1c(CCc2cccc(NS(=O)(=O)c3cc(F)ccc3F)c2)nc2ccccc21	x	1.4
39	Cc1ccc(N2C(=O)c3nccnc3C2=O)cc1F	-0.52	0.66
40	CCCc1nnc(N2C(=O)c3oc4ccc(F)cc4c(=O)c3C2c2ccc(C)cc2)s1 (stereo not drawn)	-0.03	-0.63
41	CCOC(=O)c1c(C)[nH]c(C)c1S(=O)(=O)Nc1cc(Cl)ccc1OC	x	0.63
42	O=C1CC(c2cccs2)CC2=C1C(c1cccs1)Nc1ccccc1N2 (stereo not drawn)	x	0.34
43	O=c1c(NCc2ccccc2)nccn1-c1ccc2c(c1)OCO2	x	-0.22
44	COc1ccccc1N1C(=O)C2C3c4ccccc4C(c4ccccc43)C2C1=O (stereo not drawn)	-1.07	-0.03
45	CCc1nc2nc(C)c(NS(=O)(=O)c3ccc(OC)cc3)c(=O)n2[nH]1	-1.52	1.44
46	O=C(CCC1N=C2c3ccccc3N=C(SCc3cccc(Cl)c3)N2C1=O)NCc1ccco1 (stereo not drawn)	x	0.87
47	O=S1(=O)C=CC(Sc2nc3ccccc3[nH]2)C1 (stereo not drawn)	0.35	0.67
48	CCC(C)NC(=O)C1CCN(c2nc3cccnc3s2)CC1 (stereo not drawn)	x	0.83
49	COc1ccc(C(=O)Cn2c3ccccc3n3nc(-c4ccco4)nc23)cc1OC	-1.21	0.31
50	CSc1nc(=O)c2c(n1C)NC(=O)CC2c1ccc(C)cc1C (stereo not drawn)	-1.38	1.61
51	CC1CCc2nn(CC(=O)N3CCc4ccccc4C3)cc2C1 (stereo not drawn)	-1.44	x
52	CC1Sc2ccc(S(=O)(=O)NCc3cccs3)cc2NC1=O (stereo not drawn)	x	3.02
53	COc1ccc(/C=C2\SC(=S)N(CCCC(=O)Nc3ncc(Cc4cccc([N+](=O)[O-])c4)s3)C2=O)cc1OC	-1.88	x
54	CC1CCN(C(=O)CSc2nc(-c3cccs3)nc3c2c(=O)n(C)c(=O)n3C)CC1	-1.37	x
55	Cc1cc(NC(=O)C2CC(=O)N(c3ccccc3)C2)n(-c2nc3c(c(=O)[nH]2)CCC3)n1 (stereo not drawn)	x	-0.03
56	O=C(C1CC(c2ccccc2F)=NO1)N1CCN(C(c2ccccc2)c2ccccc2)CC1 (stereo not drawn)	0.19	0.75

# (continued)
nr	SMILES	CDC25B-CDK2 inh	HIV TAR-Tat
57	CC(C)C1N=C2c3ccccc3N=C(SCC(=O)Nc3ccc(F)cc3F)N2C1=O (stereo not drawn)	x	0.3
58	CCOC(=O)c1sc(N2C(=O)C(O)=C(C(=O)c3ccco3)C2c2ccc(C(C)(C)C)cc2)nc1C (stereo not drawn)	-1.78	-0.42
59	O=C(Cn1c(=O)oc2ccccc21)NCCc1nc2ccccc2[nH]1	x	1.46
60	CCCn1c(SCc2nc(-c3ccc(Cl)cc3)no2)nnc1-c1ccncc1	-2.9	2.62
61	CCCc1nn2c(=O)cc(COC(=O)C(CC)c3ccccc3)nc2s1 (stereo not drawn)	x	0.59
62	CCOC(=O)c1ccc2c(=O)c(C(=O)OCC)c[nH]c2c1	-0.89	0.01
63	Cc1nn(C)c(C)c1CNC(=O)c1cc2nc3c(c(C(F)(F)F)n2n1)CCc1ccccc1-3	-0.48	x
64	O=c1ccc(-c2ccc3c(c2)OCCO3)n[nH]1	-0.82	0.61
65	O=C(CCc1ccccc1)OCC(=O)c1ccc(Br)cc1	0.46	-1.08
66	COc1ccc(NC(=O)CCc2nnc3ccc(N4CCCC4)nn23)cc1	x	-0.19
67	O=C(NCCc1ccccc1)c1cc(=O)[nH]c2ccc(S(=O)(=O)N3CCCCCC3)cc12	-1.11	x
68	Cc1cccc(NC(=O)Nc2ccc(F)cc2)n1	-4.73	1.41
69	COC(=O)CSC1=C(C#N)C(c2cccc(Cl)c2)CC(=O)N1 (stereo not drawn)	0.19	1.07
70	Cc1ccccc1C1CC(=O)Nc2c1c(C)nn2-c1ccc2nnc(C)n2n1 (stereo not drawn)	x	2
71	O=C(c1cccs1)N1c2ncnn2C2(CCCCC2)[C@@H]2CCCC[C@@H]21	-1.45	0.55
72	CC1CCN(S(=O)(=O)N2CCCC(C(=O)NC(C)C)C2)CC1 (stereo not drawn)	x	0.24
73	CC(=O)Nc1cccc([N+](=O)[O-])c1	-1.19	x
74	Cc1ccc(S(=O)(=O)c2ccc(=O)[nH]n2)cc1	-1.87	0.83
75	CCOC(=N)c1ccc(F)c(Cl)c1	-0.67	x
76	O=C1N=C(c2ccccc2)C(c2ccccc2)N1 (stereo not drawn)	-2.22	x
77	Cn1c(=O)oc2cc(S(=O)(=O)CCC(=O)Nc3ccccc3)ccc21	x	0.74
78	Nc1nc(C23CC4CC(CC(C4)C2)C3)cs1	-2.09	x
79	COc1ccc(Nc2cc(-c3ccccc3)nc(SC)n2)cc1Cl	0.68	-0.83
80	CCN1CCCC1CNC(=O)Cn1nc(C)n2cccc2c1=O (stereo not drawn)	-1.72	0.03
81	CN(C)c1ccc(C=Nc2ccc3c(c2)OCO3)cc1	1.44	x
82	C[C@H]1[C@H](C)CC[C@]2(C(=O)O)CC[C@]3(C)C(=CCC4[C@@]5(C)C[C@@H](O)[C@H](O)[C@@](C)(CO)C5[C@H](O)C[C@]43C)[C@H]12 (stereo partly drawn)	x	-0.26
83	NS(=O)(=O)c1ccc(NC(=O)c2cc3ccccc3oc2=O)cc1	-1.26	x
84	CCc1nc(-c2csc(S(=O)(=O)NCc3ccc(Br)cc3)c2)no1	x	1.44
85	C=C(C)CN1CCN(c2cc(C)nc3cc(-c4ccc(OC)c(OC)c4)nn23)CC1	0.43	1.28
86	CCCn1c(=O)c2sccc2n2c(CCCC(=O)NC3CCCCC3)nnc12	x	0.71
87	Oc1ccc(CNC2CCCCC2)cc1	1.95	1.32
88	COc1cc(C)c(S(=O)(=O)N2CCc3cc4ccc(C)cc4nc32)cc1C	-1.54	0.4
89	Cc1ccc(C(=O)CC2(O)C(=O)N(C)c3ccc(Br)cc32)c(C)c1 (stereo not drawn)	0.09	-0.06
90	Fc1ccccc1N1CCN(Cc2nnc(-c3cccc(Br)c3)o2)CC1	-2.94	1.12
91	CCOC(=O)c1cccc(N2C(=O)C3C4c5ccccc5C(CC)(c5ccccc54)C3C2=O)c1 (stereo not drawn)	-2.12	x
92	CN(C)CCN1C(=O)C(O)=C(C(=O)c2cccs2)C1c1ccccc1F (stereo not drawn)	0.05	0.17
93	COC(=O)c1ccc(CS(=O)(=O)c2ccccc2OC)o1	x	2.04
94	CCN1C2=NCCN2c2ccccc21	0.32	x
95	Cc1cc(C)c(S(=O)(=O)Nc2cccc3cccnc23)c(C)c1	-0.98	0.82
96	CN(C)Cc1c(O)ccc2c(=O)c(-c3ccccc3)coc12	-1.25	x
97	CC(C)CC(=O)n1c(=O)oc2cc(Br)ccc21	x	-0.71
98	CCN(CC)S(=O)(=O)c1ccc2c(c1)N(CC(=O)NC1CCCCC1C)C(=O)CS2 (stereo not drawn)	-1.53	x
99	Nc1c(-c2nc(-c3ccc(Cl)cc3)no2)nnn1-c1ccccc1	x	0.16
100	CCCCn1c(=O)c2c(nc3n2CCN3c2ccc(C)cc2)n(C)c1=O	x	1
101	CC1(C)CC(=O)C(SC(F)(F)F)C(=O)C1	0.04	x
102	CC(NC(=O)c1cc2c(s1)CS(=O)(=O)C2)C12CC3CC(CC(C3)C1)C2 (stereo not drawn)	-3.04	x
103	COc1ccc(C(=O)Nc2cc(C#N)c3sc4ccccc4n3c2=O)cc1	-0.01	-2.16
104	Cc1ccnc(NC(=O)Nc2sc3nc4n(c(=O)c3c2C)CCC(C)CC4)c1 (stereo not drawn)	0.39	-1.04
105	O=C(C1CCCN1c1nnc(N2CCCC2=O)s1)N1CCN(c2ccccc2F)CC1 (stereo not drawn)	-3.46	2.16
106	COc1ccc(NS(=O)(=O)c2ccc3c(c2)S(=O)(=O)N=CN3)cc1OC	x	0.58
107	Clc1ccc(-n2ncc3c(N4CCCCC4)ncnc32)cc1	x	0.62
108	Cc1cc2c(cc1C)NC(c1c(F)cccc1Cl)C1=C(CC(C)(C)CC1=O)N2 (stereo not drawn)	1.23	x
109	COc1ccc(-c2csc(Nc3ncccn3)n2)cc1OC	1.19	2.08
110	Cc1ccc(CNC(=O)c2cnc3sc4c(n3c2=O)CCCC4)o1	x	0.75
